Sa growth 42C: S. aureus growth inhibition at 42 and 30 °C, primary screen, LtaS inhibitor project, RN4220, two temperatures; OD600, 20 h, 42 °C; active compounds read low; relative growth, % (no concentration beside the values); 170,000 tested, 0.53% active;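 active = growth at 42 °C up to 50% and 20 or more points under that at 30 °C, or under 10% at both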;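 note: 300 nL library stock went into each well; scaled to the means of positive and negative controls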
GIV Gai3 FP: inhibitors of GIV peptide binding to Galpha-i3, primary screen, biochemical, fluorescence polarization, FITC-GIV GBA peptide, rat Galphai3; Guanine nucleotide-binding protein G(i) subunit alpha-3 (Rattus norvegicus), P08753; 90 min; active compounds read low; scaled: aluminum fluoride 0%, vehicle 100%; percent of control (FP), % (test concentration not listed); 210,000 tested, 0.42% active; AID 1224905, 2016;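 active = replicate mean at 85% of control or lower, very high polarization wells dropped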;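 note: lower values mean more displacement of the GIV peptide from Galpha-i3; wells of about 15 µL received 100 nL stock; the first replicate is given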
Target sequence (P08753 whole entry, looked up): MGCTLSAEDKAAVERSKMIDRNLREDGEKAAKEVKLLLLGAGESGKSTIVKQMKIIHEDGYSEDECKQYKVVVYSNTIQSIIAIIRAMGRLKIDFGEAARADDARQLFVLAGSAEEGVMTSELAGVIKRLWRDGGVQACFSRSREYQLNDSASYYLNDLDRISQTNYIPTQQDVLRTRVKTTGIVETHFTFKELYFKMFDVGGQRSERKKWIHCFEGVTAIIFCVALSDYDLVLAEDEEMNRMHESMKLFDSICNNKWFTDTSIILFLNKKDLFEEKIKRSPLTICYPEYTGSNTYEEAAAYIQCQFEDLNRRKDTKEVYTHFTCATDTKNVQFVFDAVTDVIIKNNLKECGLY
HCMV UL50-53 inh: inhibitors of HCMV UL50-UL53 interaction, biochemical, HTRF | 190,000 tested, 0.15% active | normalized percent inhibition | AID 1918969, 2023 | inhibition, % (test concentration not listed) | HCMV UL50-UL53 nuclear egress complex (human cytomegalovirus);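 active = both replicates at 50% or more, plus weaker picks with an unusually low signal ratio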;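 note: stock transfer was 100 nL into about 20 µL; 0% = negative control wells and 100% = wells with untagged competitor protein; inactives centre near -12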
Sa growth 42C second temp: further read-out of Sa growth 42C, marked with its call; relative growth, %; measured here: growth at 30 °C;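 optical density after 20 h as mean of two plates; 100% = untreated growth and lower means inhibition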
* marks the source's active call; other numbers are inactive results; & = joins results of further samples. Rows were taken by chance; overall some 0.79% were active at least once.

O=C(O)c1cccc(NC(=O)C2CC=CCC2C(=O)O)c1 (stereo not given) was read as Sa growth 42C 83, GIV Gai3 FP 95, HCMV UL50-53 inh -11 and Sa growth 42C second temp 91.
For Cc1ccc(CNc2nc3c(S(=O)(=O)c4cc(C)ccc4C)nnn3c3ccccc23)cc1 the results were Sa growth 42C 122, GIV Gai3 FP 107 and Sa growth 42C second temp 94.
For CCCCN(CC)C(=O)c1cc2cc3ccc(OC)cc3nc2o1 the results were GIV Gai3 FP 96 and HCMV UL50-53 inh -22.
Screening CCCCCCCCOc1ccc(C2Oc3ccccc3C3CC(c4ccccc4)=NN32)cc1 (stereo not given) returned GIV Gai3 FP 93 and HCMV UL50-53 inh -19.
Screening COc1ccc(CCNC(=O)CCc2c(C)nc3nc(C)nn3c2C)cc1OC returned Sa growth 42C 98, GIV Gai3 FP 98, HCMV UL50-53 inh -33 and Sa growth 42C second temp 87.
CC1CCc2c(sc3nnn(CC(=O)c4cccs4)c(=O)c23)C1 (stereo not given) was read as Sa growth 42C 86, GIV Gai3 FP 107, HCMV UL50-53 inh -4 and Sa growth 42C second temp 74.
Cc1c(Cl)cccc1NC(=O)c1cccs1 was read as Sa growth 42C 97, HCMV UL50-53 inh -4 and Sa growth 42C second temp 79.
For CC1CCCCC1NS(=O)(=O)c1ccc(S(=O)(=O)N2CCN(c3ncccn3)CC2)cc1 (stereo not given) the results were Sa growth 42C 141, GIV Gai3 FP 102 and Sa growth 42C second temp 93.
Screening O=C(NC1CCCC1)c1cc2c(Cl)ccc3c2n1CCO3 returned Sa growth 42C 96, GIV Gai3 FP 102&108, HCMV UL50-53 inh -27&-1 and Sa growth 42C second temp 92.
For Cc1cc(C)c2c(n1)SCCN2C(=O)Nc1ccc(C)c(Cl)c1 the results were GIV Gai3 FP 110 and HCMV UL50-53 inh -7.
Screening CCc1ccccc1NC(=O)CSc1nnc(COc2ccccc2Cl)o1 returned Sa growth 42C 110, GIV Gai3 FP 106, HCMV UL50-53 inh -11 and Sa growth 42C second temp 90.
`Cc1cc(C)nc(N(C#N)CCOc2ccccc2)n1` gave Sa growth 42C 92, GIV Gai3 FP 101, HCMV UL50-53 inh -7 and Sa growth 42C second temp 69.
Screening Cc1c(Cc2c(C)n(C)n(-c3ccccc3)c2=O)c(=O)n(-c2ccccc2)n1C returned Sa growth 42C 105, GIV Gai3 FP 104, HCMV UL50-53 inh -11 and Sa growth 42C second temp 83.
CCN(C(=O)c1ccc(C(=O)N(CC)c2ccccc2C)cc1)c1ccccc1C was read as Sa growth 42C 102, GIV Gai3 FP 107, HCMV UL50-53 inh -34 and Sa growth 42C second temp 89.
For Cn1c(=O)c(-c2noc(CCC(=O)Nc3ccccc3Cl)n2)nn(-c2ccc(F)cc2)c1=O the results were GIV Gai3 FP 106 and HCMV UL50-53 inh -88.
Screening C/C(=N/OC(=O)c1ccccc1)C(=O)c1cccs1 returned Sa growth 42C 103, GIV Gai3 FP 99, HCMV UL50-53 inh -17 and Sa growth 42C second temp 102.
Screening CCn1c(SCC(N)=O)nnc1-c1ccoc1C returned Sa growth 42C 83, HCMV UL50-53 inh -29 and Sa growth 42C second temp 84.
`CCN(CC)S(=O)(=O)c1ccc(C(=O)N2CCN(c3ccccc3)CC2)cc1` gave Sa growth 42C 87, HCMV UL50-53 inh 0 and Sa growth 42C second temp 95.
`CCCSc1nnc2c(n1)OC(c1cccs1)Nc1ccc(Br)cc1-2` (stereo not given) gave Sa growth 42C 115, GIV Gai3 FP 114, HCMV UL50-53 inh -12 and Sa growth 42C second temp 77.
Screening CC(C)CCNC(=O)c1cnc2sc3c(n2c1=O)CCC3 returned GIV Gai3 FP 108 and HCMV UL50-53 inh -5.
For CC1(C)Cc2ccccc2-c2nnc(SCC(=O)N3CCCCC3)n21 the results were Sa growth 42C 116, GIV Gai3 FP 105, HCMV UL50-53 inh -5 and Sa growth 42C second temp 108.
For CCN(CC)C(=O)CSc1nnc2nnc3ccccc3n12 the results were Sa growth 42C 79, GIV Gai3 FP 100, HCMV UL50-53 inh -236 and Sa growth 42C second temp 73.
O=C(NC1CCS(=O)(=O)C1)c1ccc(Cn2c(SCc3ccc(F)cc3Cl)nc3ccncc32)cc1 (stereo not given) was read as GIV Gai3 FP 103 and HCMV UL50-53 inh -10.
O=C1c2ccccc2C(=O)N1CCn1c(=O)oc2ccccc21 was read as Sa growth 42C 80, GIV Gai3 FP 107 and Sa growth 42C second temp 78.
`CCOC(=O)N1CCC(N2Cc3cccc(C(=O)Nc4ccc(S(=O)(=O)N(CC)CC)cc4)c3C2=O)CC1` gave Sa growth 42C 98, GIV Gai3 FP 103, HCMV UL50-53 inh 12 and Sa growth 42C second temp 96.
Screening O=C(N1CCOCC1)N1CCN(c2ccccc2)CC1 returned Sa growth 42C 110, GIV Gai3 FP 102, HCMV UL50-53 inh -5 and Sa growth 42C second temp 79.
Screening O=C(O)C1=CC(c2ccc(Br)cc2)n2ncnc2N1 (stereo not given) returned Sa growth 42C 116, GIV Gai3 FP 105, HCMV UL50-53 inh -8 and Sa growth 42C second temp 89.
CCOc1ccc(CNC(=O)CCS(=O)(=O)c2cc3c4c(c2)CCN4C(=O)CC3)cc1 was read as Sa growth 42C 81, GIV Gai3 FP 99 and Sa growth 42C second temp 92.
For Clc1ccc(-c2csc(Nc3ncccn3)n2)c(Cl)c1 the results were Sa growth 42C 116, HCMV UL50-53 inh 2 and Sa growth 42C second temp 91.
Cc1c(S(=O)(=O)c2ccc(Cl)cc2)csc1C(=O)Nc1ccc(F)cc1F was read as Sa growth 42C 107, GIV Gai3 FP 103, HCMV UL50-53 inh -23 and Sa growth 42C second temp 94.
Screening Cc1ccc(C)c(CSC2=NCCN2C(=O)COc2ccccc2)c1 returned Sa growth 42C 140, GIV Gai3 FP 102 and Sa growth 42C second temp 87.
For CC(C)CC(=O)Nc1cccc(-c2nnc(-c3cccc(NC(=O)CC(C)C)c3)o2)c1 the results were Sa growth 42C 107, GIV Gai3 FP 99, HCMV UL50-53 inh -24 and Sa growth 42C second temp 91.
For O=c1c2ccccc2nnn1CSC(=S)N1CCCC1 the results were Sa growth 42C 113, HCMV UL50-53 inh -6 and Sa growth 42C second temp 99.
COc1ccccc1NC(=O)Cn1cnc2sc(C(=O)OC(C)C)c(C)c2c1=O was read as Sa growth 42C 95, HCMV UL50-53 inh -18 and Sa growth 42C second temp 92.
For O=c1cc(-c2ccccc2)oc2ccccc12 the results were Sa growth 42C 82, GIV Gai3 FP 103, HCMV UL50-53 inh 2&-22 and Sa growth 42C second temp 41.
`CCCNC(=O)c1cc(=O)n(Cc2ccc(C)cc2)c2ccccc12` gave Sa growth 42C 90, GIV Gai3 FP 100 and Sa growth 42C second temp 99.
For N#C/C(=C\c1cn(-c2ccccc2)nc1-c1ccccc1)C(=O)N1CCCCC1 the results were Sa growth 42C 112, HCMV UL50-53 inh -7 and Sa growth 42C second temp 85.
Screening Cc1cc2nc(-c3cccc(NC(=O)COc4ccc(Cl)c(C)c4)c3)oc2cc1C returned Sa growth 42C 104, GIV Gai3 FP 108, HCMV UL50-53 inh -21 and Sa growth 42C second temp 92.
`COC(=O)c1sc(N2C(=O)c3oc4ccc(C)cc4c(=O)c3C2c2ccc(O)c(OC)c2)nc1C` (stereo not given) gave Sa growth 42C 97, GIV Gai3 FP 101, HCMV UL50-53 inh 11 and Sa growth 42C second temp 104.
For CCCC(=O)Oc1c[nH]c2ccccc12 the results were Sa growth 42C 3.9*, GIV Gai3 FP 98, HCMV UL50-53 inh 28 and Sa growth 42C second temp 5.2*.

Of the compounds above, these contain an aryl methoxy group.
For CCCCN(CC)C(=O)c1cc2cc3ccc(OC)cc3nc2o1 the results were GIV Gai3 FP 96 and HCMV UL50-53 inh -22.
Screening COc1ccc(CCNC(=O)CCc2c(C)nc3nc(C)nn3c2C)cc1OC returned Sa growth 42C 98, GIV Gai3 FP 98, HCMV UL50-53 inh -33 and Sa growth 42C second temp 87.
COc1ccccc1NC(=O)Cn1cnc2sc(C(=O)OC(C)C)c(C)c2c1=O was read as Sa growth 42C 95, HCMV UL50-53 inh -18 and Sa growth 42C second temp 92.
`COC(=O)c1sc(N2C(=O)c3oc4ccc(C)cc4c(=O)c3C2c2ccc(O)c(OC)c2)nc1C` (stereo not given) gave Sa growth 42C 97, GIV Gai3 FP 101, HCMV UL50-53 inh 11 and Sa growth 42C second temp 104.

Following part:
Screening Cc1cc(C(=O)OCc2nc3ccccc3s2)c(C)o1 returned Sa growth 42C 67, HCMV UL50-53 inh -32 and Sa growth 42C second temp 66.
Screening CNC(=O)c1nn(-c2ccc(Cl)cc2)nc1CO returned GIV Gai3 FP 103 and HCMV UL50-53 inh -15.
`CC(C)(C)SCC(=O)O` gave Sa growth 42C 103, HCMV UL50-53 inh -14 and Sa growth 42C second temp 87.
`OC1(c2ccco2)CSC(=Nc2cccnc2)N1C1CC1` (stereo not given) gave Sa growth 42C 94, HCMV UL50-53 inh -8 and Sa growth 42C second temp 94.
For O=C(CN1CCCCCC1=O)NCCOc1ccccc1F the results were Sa growth 42C 99, HCMV UL50-53 inh -44 and Sa growth 42C second temp 91.
Screening Cc1cc(C2C(C#N)=C(N)N(c3ccccc3Cl)C3=C2C(=O)CC(c2ccccc2)C3)c(C)s1 (stereo not given) returned Sa growth 42C 104, GIV Gai3 FP 103 and Sa growth 42C second temp 88.
Screening O=C(CCc1ccccc1)NCc1ccco1 returned Sa growth 42C 110, GIV Gai3 FP 101, HCMV UL50-53 inh -11 and Sa growth 42C second temp 87.
`COc1ccc(C(=O)N=c2sc3ccccc3n2C)cc1` gave Sa growth 42C 102, HCMV UL50-53 inh -2 and Sa growth 42C second temp 100.
For Cc1cc(C)n2c(Nc3ccc4c(c3)OCCO4)c(-c3ccc(Cl)cc3)nc2n1 the results were Sa growth 42C 104, GIV Gai3 FP 107, HCMV UL50-53 inh 6 and Sa growth 42C second temp 103.
COc1ccc(-c2nn(CCC(=O)O)cc2C=C2C(=O)NC(=S)NC2=O)cc1OC was read as Sa growth 42C 90, HCMV UL50-53 inh 0 and Sa growth 42C second temp 89.
CCC(=O)N1CCN(c2ccnc3cc(Cl)ccc23)CC1 was read as Sa growth 42C 106, GIV Gai3 FP 103, HCMV UL50-53 inh 3 and Sa growth 42C second temp 88.
Cc1ccc(N(CC(O)Cn2c3ccccc3c3ccccc32)S(=O)(=O)c2ccc(F)cc2)cc1 (stereo not given) was read as Sa growth 42C 103, GIV Gai3 FP 109, HCMV UL50-53 inh -3 and Sa growth 42C second temp 100.
Screening COc1ccc(-c2nc(SCC(=O)NCCCc3ccccc3)n[nH]2)cc1 returned Sa growth 42C 86, GIV Gai3 FP 101 and Sa growth 42C second temp 99.
`Cc1nc(C)c(S(=O)(=O)NCc2csc(-c3cccs3)n2)s1` gave Sa growth 42C 129, GIV Gai3 FP 109, HCMV UL50-53 inh -28 and Sa growth 42C second temp 95.
For CN1CCN(C(c2ccc(F)cc2)c2sc3nc(-c4ccco4)nn3c2O)CC1 (stereo not given) the results were Sa growth 42C 119, GIV Gai3 FP 100 and Sa growth 42C second temp 87.
CSc1nc(C)c(C(=O)CNc2ccccc2)cc1C#N was read as Sa growth 42C 78, HCMV UL50-53 inh 1 and Sa growth 42C second temp 94.
Screening O=C(CSc1nnc(Cc2ccccc2)o1)NCCc1ccccc1 returned Sa growth 42C 105, GIV Gai3 FP 108, HCMV UL50-53 inh -10 and Sa growth 42C second temp 93.
Cc1ccc(NC(=O)C2CCCN(S(=O)(=O)c3ccc4nc(-c5ccccc5)[nH]c4c3)C2)cc1 (stereo not given) was read as Sa growth 42C 87, GIV Gai3 FP 100 and Sa growth 42C second temp 88.
`O=c1nc2n(-c3ccccc3F)c3ccccc3cc-2c(=O)[nH]1` gave Sa growth 42C 112, GIV Gai3 FP 102, HCMV UL50-53 inh -163 and Sa growth 42C second temp 85.
Screening Cc1nc(-c2ccnc(-c3cc(Cl)cc(Cl)c3)n2)cs1 returned Sa growth 42C 103, GIV Gai3 FP 109, HCMV UL50-53 inh -1 and Sa growth 42C second temp 101.
For CN1CCN(Cc2c(O)ccc3cc(-c4nc5ccccc5[nH]4)c(=O)oc23)CC1 the results were Sa growth 42C 94, GIV Gai3 FP -75*, HCMV UL50-53 inh -60 and Sa growth 42C second temp 83.
Screening CCCOC(=O)c1ccc(-n2nc(C(F)(F)F)c3c(C)cc(=O)oc32)cc1 returned Sa growth 42C 97, HCMV UL50-53 inh 6 and Sa growth 42C second temp 97.
Screening Cc1noc(/C=C/c2ccccc2F)c1S(=O)(=O)N1CCC(C(=O)N(C)Cc2ccco2)CC1 returned Sa growth 42C 90, GIV Gai3 FP 104 and Sa growth 42C second temp 93.
Screening Clc1ccc(C2Oc3ccccc3CN2Cc2ccco2)cc1 (stereo not given) returned Sa growth 42C 116, HCMV UL50-53 inh 9 and Sa growth 42C second temp 96.
`CN(c1ccccc1)S(=O)(=O)c1ccc(C(=O)c2sc(N3CCOCC3)nc2-c2cccs2)cc1` gave Sa growth 42C 109, HCMV UL50-53 inh -6 and Sa growth 42C second temp 91.
O=C(NCCC1=CCCCC1)c1ccc2c(c1)N(Cc1cccc(Cl)c1)C(=O)c1ccccc1S2=O (stereo not given) was read as Sa growth 42C 108, GIV Gai3 FP 100 and Sa growth 42C second temp 93.

Screens (PubChem)
